# PV pol inh – poliovirus RNA polymerase inhibition; % elongation, % (compound at 16.7 µg/mL); poliovirus polymerase elongation, fluorescence polarization; active compounds read low; 150,000 tested, 0.66% active; P03300; in the data active = % elongation below about 90%; note: some results filed as inactive read as strong as hits
# Target sequence (P03300 1749-2209 limits assumed): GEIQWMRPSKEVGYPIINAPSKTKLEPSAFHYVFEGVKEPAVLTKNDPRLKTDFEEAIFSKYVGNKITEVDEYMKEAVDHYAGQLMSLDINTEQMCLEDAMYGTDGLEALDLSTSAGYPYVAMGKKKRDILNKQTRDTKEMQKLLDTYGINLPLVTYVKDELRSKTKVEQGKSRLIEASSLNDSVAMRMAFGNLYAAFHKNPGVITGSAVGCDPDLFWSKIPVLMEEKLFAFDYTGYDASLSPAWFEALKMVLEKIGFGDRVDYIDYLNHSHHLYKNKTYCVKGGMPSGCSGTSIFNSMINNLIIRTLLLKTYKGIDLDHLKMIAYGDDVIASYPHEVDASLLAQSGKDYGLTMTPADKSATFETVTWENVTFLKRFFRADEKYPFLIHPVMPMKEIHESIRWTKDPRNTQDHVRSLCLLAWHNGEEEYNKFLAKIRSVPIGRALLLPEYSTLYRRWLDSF
# PV pol inh intensity – recorded beside PV pol inh, whose call it bears; % elongation; measured here: total intensity read-out; formula for this scale not given here;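 total fluorescence in place of polarization; lower means less elongation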
# Starred values were filed as active, the others as inactive. Some of the compounds tested. The share of hits here may be higher or lower than overall.
SMILES,PV pol inh,PV pol inh intensity
CN(C)c1ccc(CNc2nc(-c3ccco3)nn2S(C)(=O)=O)cc1,106,107
O=C(Nc1cccc(NC(=O)c2ccccc2Cl)c1)c1cccc(Br)c1,104,105
Cc1cccc(C)c1OCC(=O)NC(Cc1c[nH]c2ccccc12)C(=O)O (stereo unspecified),106,102
Cc1ccc(C)c(Cn2c(C(C)NC(=O)c3ccc(F)cc3)nc3ccccc32)c1 (stereo unspecified),104,106
COC(=O)c1c(NC(=O)CCCOc2ccccc2C)sc2c1CCC2,106,108
CCOc1ccc(-n2c(SC(C)C(=O)OC)nc3c([nH]c4ccccc43)c2=O)cc1 (stereo unspecified),109,113
COc1ccc(C)cc1NS(=O)(=O)c1c(C)nc2sc(C)cn2c1=O,103,95
O=C1c2[nH]nc(-c3ccccc3O)c2C(c2ccccc2F)N1Cc1cccnc1 (stereo unspecified),99,102
CC(C)c1ccc(NC(=O)C(NS(=O)(=O)c2ccc3c(c2)CCC(=O)N3)c2ccccc2)cc1 (stereo unspecified),108,110
Cc1ccc(O)c(NC(=O)c2cc(-c3ccccc3O)no2)c1,114,107
CCOc1ccc(-c2n[nH]c3c2C(c2ccccc2OC)N(c2ccc(Br)cc2)C3=O)cc1 (stereo unspecified),107,109
Cc1ccc(S(=O)(=O)NC2(C(F)(F)F)NC(=O)N(c3ccc(F)cc3)C2=O)cc1 (stereo unspecified),102,104
CCOc1ccc(CNC(=O)c2ccc3c(c2)nc2n3CCC(C)C2)cc1OC (stereo unspecified),103,109
COc1ccc(C(=O)Nc2cc(S(=O)(=O)c3ccc(Cl)cc3)c(O)c(C)c2C)cc1,108,110
Nc1c(C(=O)NCc2ccc(Cl)cc2Cl)nnn1Cc1ccc(Br)cc1,105,107
COc1ccccc1C(=O)Nc1nnc2n1CCS2,108,105
Cc1ccc(Cn2c(C)c(CNCC(C)c3ccccc3)c(C(=O)O)c2C)cc1 (stereo unspecified),107,107
CN1CCN(c2csc3ccc(F)cc3c2=O)CC1,106,109
Cc1ccc(NC(=O)c2ccc3c(c2)NC(=O)c2ccccc2S3)cc1,108,113
O=C(NCCc1csc(-c2ccc(C(F)(F)F)cc2)n1)c1ccccc1Cl,107,110
O=c1c(N2CCN(c3ccc(F)cc3)CC2)csc2ccc(F)cc12,108,107
CCOc1ccc(CCNC(=O)C2Cc3ccccc3N2C(=O)CC)cc1 (stereo unspecified),106,111
Cc1ccc2c(c1)-c1cc(C)nn1C(c1cc(Br)ccc1O)N2 (stereo unspecified),100,103
Cc1ccc(-c2nc(NC(=O)CSc3ncnc4sc5c(c34)CCC(C)C5)ns2)cc1 (stereo unspecified),104,110
COc1ccc(CCNC(=O)c2ccc3c(c2)CCN3S(C)(=O)=O)cc1OC,108,108
Cc1ccc(S(=O)(=O)C(CNC(=O)C(=O)NCCc2ccccc2)c2ccco2)cc1 (stereo unspecified),102,96
CCC(=O)N1CCc2cc(Br)cc(S(=O)(=O)CCC(=O)N3CCN(c4cccc(C(F)(F)F)c4)CC3)c21,102,104
O=C(c1ccc2c(c1)N(Cc1ccccc1F)C(=O)c1ccccc1S2=O)N1CCC(Cc2ccccc2)CC1 (stereo unspecified),103,105
O=C(NCc1ccccc1Br)c1ccc2nc(N3CCCCC3)sc2c1,113,118
COCCCn1c(=O)c2sccc2n2c(CCCC(=O)NCc3cccc(OC)c3)nnc12,118,122
CC(C)c1ccc(NC(=O)CN2C=NS(=O)(=O)c3ccccc32)cc1,109,108
O=C(c1ccc(F)cc1)n1nc(-c2ccccc2)nc1NCc1ccco1,104,107
COc1cc(OC)c(NC(=O)C2=C(C)C(=O)OC23CCCCC3)cc1Cl,107,112
Cc1ccc(-c2ccc(=O)n(CC(=O)NC(C)c3ccccc3)n2)cc1 (stereo unspecified),105,104
COc1ccc(-c2cn3c(n2)sc2cc(C(=O)Nc4ccc(C)cc4C)ccc23)cc1,112,115
COc1ccccc1N1CCN(C(=O)CSc2nc3ccccc3nc2Cc2ccccc2)CC1,107,113
COc1ccc(-n2nc3c(N4CCC(C(=O)NCc5ccccc5C)CC4)nnc(C)c3c2C)cc1,102,90
Cc1ccccc1Cn1nc(C)c(NC(=O)c2cc(CC(C)C)on2)c1C,106,110
Cn1c(=O)c2c(nc(N3CCOCC3)n2Cc2ccccc2Cl)n(C)c1=O,110,111
COc1cc(NC(=O)c2ccc(C)c(Cl)c2)ccc1NC(=O)c1cc2ccccc2o1,106,104
Cc1oc2ncn(C)c(=O)c2c1C(=O)NCc1ccc(Cl)cc1,108,115
CCC1CN(C(=O)N2CCC(C(=O)NCc3cc(OC)c(OC)c(OC)c3)CC2)c2ccccc2O1 (stereo unspecified),111,113
Cc1sc2ncn(CC(=O)N3CCN(c4ccc(F)cc4)CC3)c(=O)c2c1S(=O)(=O)N1CCCCC1,105,110
COc1cccc(N2CCN(C(=O)C3CCC(CNS(=O)(=O)c4ccc(Br)s4)CC3)CC2)c1 (stereo unspecified),103,103
CCOC(=O)N1CCN(C(=O)CN(c2ccc(C)cc2C)S(=O)(=O)c2ccccc2)CC1,105,106

# 17 of the compounds above, bar-delimited.
SMILES | PV pol inh | PV pol inh intensity
O=c1c(N2CCN(c3ccc(F)cc3)CC2)csc2ccc(F)cc12 | 108 | 107
CCOc1ccc(CCNC(=O)C2Cc3ccccc3N2C(=O)CC)cc1 (stereo unspecified) | 106 | 111
Cc1ccc2c(c1)-c1cc(C)nn1C(c1cc(Br)ccc1O)N2 (stereo unspecified) | 100 | 103
Cc1ccc(-c2nc(NC(=O)CSc3ncnc4sc5c(c34)CCC(C)C5)ns2)cc1 (stereo unspecified) | 104 | 110
COc1ccc(CCNC(=O)c2ccc3c(c2)CCN3S(C)(=O)=O)cc1OC | 108 | 108
Cc1ccc(S(=O)(=O)C(CNC(=O)C(=O)NCCc2ccccc2)c2ccco2)cc1 (stereo unspecified) | 102 | 96
CCC(=O)N1CCc2cc(Br)cc(S(=O)(=O)CCC(=O)N3CCN(c4cccc(C(F)(F)F)c4)CC3)c21 | 102 | 104
O=C(c1ccc2c(c1)N(Cc1ccccc1F)C(=O)c1ccccc1S2=O)N1CCC(Cc2ccccc2)CC1 (stereo unspecified) | 103 | 105
O=C(NCc1ccccc1Br)c1ccc2nc(N3CCCCC3)sc2c1 | 113 | 118
COCCCn1c(=O)c2sccc2n2c(CCCC(=O)NCc3cccc(OC)c3)nnc12 | 118 | 122
CC(C)c1ccc(NC(=O)CN2C=NS(=O)(=O)c3ccccc32)cc1 | 109 | 108
O=C(c1ccc(F)cc1)n1nc(-c2ccccc2)nc1NCc1ccco1 | 104 | 107
COc1cc(OC)c(NC(=O)C2=C(C)C(=O)OC23CCCCC3)cc1Cl | 107 | 112
Cc1ccc(-c2ccc(=O)n(CC(=O)NC(C)c3ccccc3)n2)cc1 (stereo unspecified) | 105 | 104
COc1ccc(-c2cn3c(n2)sc2cc(C(=O)Nc4ccc(C)cc4C)ccc23)cc1 | 112 | 115
COc1ccccc1N1CCN(C(=O)CSc2nc3ccccc3nc2Cc2ccccc2)CC1 | 107 | 113
COc1ccc(-n2nc3c(N4CCC(C(=O)NCc5ccccc5C)CC4)nnc(C)c3c2C)cc1 | 102 | 90

# The listing continues.
SMILES,PV pol inh,PV pol inh intensity
CCN(c1ccc(C)cc1C)S(=O)(=O)c1nnc(NC(=O)c2ccc(F)cc2)s1,110,113
Cc1cc(NC(=O)NCc2ccc3c(c2)CCN3C(=O)c2ccccc2)ccc1Br,115,115
CC1=C(C(=O)OCC2CCCCC2)C(c2ccccc2F)CC(=O)N1 (stereo unspecified),107,109
CC(=O)N1CCc2cc(Br)cc(S(=O)(=O)CCC(=O)NCc3ccc(F)cc3)c21,107,107
Cc1ccc2occ(CC(=O)Nc3c(C)cccc3C)c2c1,114,113
CCS(=O)(=O)c1ncc(Cl)c(C(=O)N2CCN(c3cccc(Cl)c3)CC2)n1,113,115
CCC(=O)N1CCc2cc(S(=O)(=O)CCC(=O)Nc3ccc(OC(F)(F)F)cc3)ccc21,107,110
CCc1cccc(NC(=O)c2cnc(SC)nc2-c2ccccc2)c1,106,112
CCCCN(CCCC)C(=O)CN(C)S(=O)(=O)c1ccc2c(c1)c(=O)n(C)c(=O)n2C,101,100
Cc1ccc(S(=O)(=O)c2cn(Cc3ccccc3)c3cc(N4CCCC4)c(F)cc3c2=O)cc1C,112,113
Cc1cc(NCc2ccc(Cl)cc2)n2cnnc2n1,110,117
CCC(C(=O)NC1CCCCC1)n1c(SCc2cccc(F)c2)nc2ccncc21 (stereo unspecified),109,107
COc1ccccc1Cn1c(SCC(=O)C(C)(C)C)nc2ccccc2c1=O,112,110
CCCC(=O)Nc1ccc2c(c1)nc(CN1CCN(C(=O)OCC)CC1)n2C(C)C,101,93
Cc1ccc(-c2nc(C)c(CCNC(=O)C(=O)Nc3cc(C)ccc3C)s2)cc1,109,109
CCOc1ccc(C2CC(=O)c3c([nH]c(C(=O)OCCOc4ccccc4)c3C)C2)cc1 (stereo unspecified),98,100
COc1ccccc1N1CCN(c2ncnc3c2cnn3C)CC1,107,106
CCOC(=O)c1cccc(NC(=O)c2cnc3sc(N4CCOCC4)nn3c2=O)c1,106,105
Cc1cccc(C)c1Nc1c(-c2cccs2)nc2ncccn12,115,141
COC(=O)CC1Oc2ccccc2-n2cc(-c3ccc(C)cc3)nc21 (stereo unspecified),105,105
COc1cccc(/C=C/C(=O)Nc2ccc3nc(N4CCN(C)CC4)cc(C)c3c2)c1OC,99,89
CCOc1ccc(NC(=O)CSc2nc3c(oc4ccccc43)c(=O)n2CCOC)cc1,100,104
CCc1ccc(-c2nn(CC(=O)NC3CCCC3)c3c2cnc2ccc(C)cc23)cc1,104,108
Cc1cccc(C)c1NC(=O)C(NS(=O)(=O)c1ccc2c(c1)CCC(=O)N2)c1ccccc1 (stereo unspecified),112,116
CCCC(=O)N1CC(=O)Nc2ccc(Cl)cc2C1c1ccc(F)cc1 (stereo unspecified),103,105
CCOc1ccc(CNC(=O)CCS(=O)(=O)c2cc3c4c(c2)CCN4C(=O)CC3)cc1OC,101,109
COc1cccc(CC(=O)Nc2c(C(=O)N3CCN(c4ccccc4)CC3)oc3ccccc23)c1,105,114
O=C(Cn1nc(Cc2cccnc2)c2ccccc2c1=O)N1CCN(c2ccccc2F)CC1,105,111
Cc1nc2nc(C)c(CCC(=O)NCc3ccccc3)c(C)n2n1,107,105
COc1ccc(OC)c(Nc2ncnc3c2cnn3-c2ccc(C)cc2)c1,105,108
COc1cccc(OC)c1C(=O)Nc1ccc2c(c1)N(C(C)=O)CCC2,109,110
CCc1ccc(S(=O)(=O)c2nnn3c2nc(N2CCN(c4ccccc4)CC2)c2cc(Cl)ccc23)cc1,107,111
Cc1cccc(-c2nc3cc(NC(=O)Cc4ccc(Cl)cc4)ccc3o2)c1,109,113
Cc1ccc2c(n1)sc1c(=O)n(-c3cccc(C(F)(F)F)c3)nnc12,102,96
CCC(Oc1ccccc1)C(=O)Nc1cc(-c2ccccc2F)nn1-c1ccccc1 (stereo unspecified),101,99
O=S(=O)(Nc1ccc2oc3c(c2c1)CCCC3)c1cc(Cl)ccc1Cl,109,112
CCOC(=O)C1=C(CN2CCCCC2)NC(=O)NC1c1ccc(C)cc1 (stereo unspecified),111,115
Cc1ccc(NC(=O)c2cc3c(-c4ccccc4)nn(-c4ccccc4)c3s2)cc1,106,110
Cc1c(Cl)cccc1NC(=O)CN1C(=O)CCn2nc(-c3cccn3C)cc21,111,111
CCCOc1ccc(NC(=O)CC2C(=O)N(c3ccccc3)C(=O)N2CCC(C)C)cc1 (stereo unspecified),103,107
N#C/C(=C\c1cccc(F)c1)c1nc(-c2cc3ccccc3oc2=O)cs1,106,115
Cc1ccc(N(CC(=O)Nc2cccc(F)c2)S(=O)(=O)c2cccs2)cc1,107,107
Cc1ccc(C)c2sc(NC(=O)c3ccc(S(=O)(=O)N4CCC(C)CC4)cc3)nc12,115,110
CCOC(=O)c1noc2ncn(CC(=O)Nc3ccccc3OC)c(=O)c12,98,95
Cc1nn(CC(=O)O)c(=O)c2cc3cc(F)ccc3n12,116,108
Cc1ccccc1-c1nn2c(=O)cc(CN3CCN(C(=O)/C=C/c4ccccc4)CC3)nc2s1,108,107
COc1cc(-c2cc(OC)c3c(C)oc(C)c3c(=O)c2)ccc1OC(=O)c1cccc(Cl)c1,106,103
O=C(NCCc1ccc(Cl)cc1)C(=O)NCC(c1ccco1)S(=O)(=O)c1ccc(Cl)cc1 (stereo unspecified),114,113
Cc1c(Cl)cccc1Nc1sc(C(=O)c2ccccc2)c(N)c1S(=O)(=O)c1ccccc1,109,111
CN(C)S(=O)(=O)c1ccc2c(c1)N(CC(=O)N1CCCCC1)CCS2,102,112
CCOc1ccc(CCNC(=O)CCCc2nnc3n(CC)c(=O)c4sccc4n23)cc1OCC,100,102
CCCN(CCC)C(=O)C(Cc1ccccc1)NS(=O)(=O)c1ccc2c(c1)c(=O)n(C)c(=O)n2C (stereo unspecified),105,106
O=C(NCc1ccccc1Cl)C1CCN(c2ncnc3c2nc2n3CCCCC2)CC1,99,102
COCCCNC(=O)C1CCCN(C(=O)c2cnn(-c3ccc(F)cc3)c2-n2cccc2)C1 (stereo unspecified),108,90
CCc1cccc(-n2c(=O)c3cccnc3n2CC(=O)NCc2ccccc2)c1,111,115
O=C(c1ccc([N+](=O)[O-])cc1)N1CCN(c2ccc(Nc3ccccc3)nn2)CC1,106,103
Cc1cccc(NC(=O)Cn2c(=O)c3cccn3c3ccccc32)c1C,112,111
CCOC(=O)CCc1c(C)c2cc3c(c(C)c2oc1=O)OCN(CCc1ccccc1OC)C3,102,108
Cc1cc(C)cc(NC(=O)Cn2c3ncccc3c(=O)n2-c2ccc(C)c(C)c2)c1,109,109
Cc1ccc(-c2nnc(Nc3ccc(Cl)cc3)c3ccccc23)cc1S(=O)(=O)N1CCOCC1,105,102

# Following part.
SMILES,PV pol inh,PV pol inh intensity
CCCN(CCC)CCNC(=O)Cn1cc2c(n1)-c1c(oc(C(=O)N3CCCC3)c1C)CC2,104,96
CCc1nnc(NC(=O)c2nc(S(=O)(=O)Cc3cccc(C)c3)ncc2Cl)s1,106,112
CCOc1ccc(NC(=O)CCc2c(C)nc3cc(-c4ccccc4OC)nn3c2C)cc1,105,108
COc1ccc(N(CC(=O)NCCc2ccc(C)cc2)S(=O)(=O)c2c(C)nn(C)c2C)cc1,103,104
Cn1ccc2cc(S(=O)(=O)N3CCN(C(=O)Nc4cccc(F)c4)CC3)ccc21,109,112

# Source: PubChem BioAssay
